PrP UTR inh: suppresses PrP 5' UTR mRNA reporter expression; cell-based PrP 5' UTR mRNA reporter, plate reader; inhibition, % (test concentration not listed); 340,000 tested, 0.35% active;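 active = every replicate at 50% or more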;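 also: 0 = median of the neutral control wells; tested in H4 reporter cells; numbers are from one replicate; inactives centre near -14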
BJeLR viability: kills HRASV12-expressing BJeLR cells; AID 1554; inhibition, % (test concentration not listed); 300,000 tested, 0.17% active; BJeLR (HRASV12) viability, CellTiter-Glo ATP luminescence, 48 h; reference of the scale not given here;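 active = replicate mean above 50%; inconclusive = above 50% but judged a plate artefact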;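 also: 50 nL library stock added to about 25 µL; numbers are from one replicate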
Autofluor counter: counter-screen for toxin protease inhibitors: compound fluorescence. AID 624483. 360,000 tested, 3.1% active. compound autofluorescence counterscreen, microsphere flow cytometry; hits give high values. fluorescence intensity (no concentration beside the values);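 active = at least 3 SD above the mean of all compounds, about 16000 in these data; inconclusive = too few beads counted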;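 also: 100 nL of 1 mM stock went into each well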
Sa RN4220 lethal: S. aureus RN4220 growth inhibition. OD600, 16 h. inhibition, % (test concentration not listed). 330,000 tested, 0.33% active. AID 1259311;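 active = z-score of -3 or lower and OD600 up to 0.18 on both plates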;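 also: plate controls were untreated cells for no effect and reference antibiotic for full effect; stock transfer was 100 nL into about 80 µL; one replicate is shown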
Sa ugtP lethal: kills S. aureus RN4220 lacking UgtP. S. aureus RN4220 ugtP deletion, OD600 growth, 16 h; some inactives read as strong as hits. growth inhibition, % (test concentration not listed). 330,000 tested, 0.54% active;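 active = z-score under -3 and OD600 up to 0.15 on both plates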;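 also: plate controls were untreated wells for no effect and antibiotic for full effect; wells of about 80 µL received 100 nL stock; the first replicate is given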
Mtb hypoxia inh: inhibitors of hypoxia-regulated fluorescent reporter in Mycobacterium tuberculosis; M. tuberculosis hypoxia-regulated fluorescent reporter, fluorescence; fluorescence inhibition, % (concentration not given with the values); 300,000 tested, 0.1% active;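 active = 35 to 45% if threefold the growth effect, above 45% if 1.5-fold the growth effect; inactive = the rest, general growth blockers included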;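 also: wells of about 50 µL received 100 nL stock; 0% = vehicle wells and 100% = reference inhibitor wells; whole bacteria with a GFP reporter of the hypoxia response; strong numbers were not always called active; many hits fall short of the cut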
Mtb hypoxia inh growth: further read-out of Mtb hypoxia inh, marked with its call; growth inhibition, %; measured here: M. tuberculosis growth (absorbance);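 0% = vehicle and 100% = reference antibiotic; read after six days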
Starred values were filed as active, the others as inactive; u = inconclusive; x = not tested or not shown. Hits appear at their usual frequency; about 3.9% have a hit in one of these screens.

item	mol	PrP UTR inh	BJeLR viability	Autofluor counter	Sa RN4220 lethal
1	CCOC(=O)C1C(=O)OC(C)(C)C1C(CC)C(=O)c1c(C)cc(C)cc1C (centres undefined)	x	8	3762	3.7
2	COC(=O)c1c(NC(=O)c2ccc([N+](=O)[O-])o2)sc2c1CCN(C(C)C)C2	66*	20	4037	x
3	COC(=O)CSc1nc2cc(OC)ccc2n1C	0	-14	4208	2.2
4	COC(=O)C1=CNC=C(C(=O)OC)C1c1cccc(OC)c1	-6	-6	3883	2.2
5	CCOc1ccc(S(=O)(=O)N2CCc3ccccc3C2)cc1	-18	-3	3285	-1.3
6	CCCc1cc(=O)oc2c(C)c(O[C@@H]3O[C@H](CO)[C@@H](O)[C@H](O)[C@H]3O)ccc12	-11	4	4047	7.6
7	COc1ccc(-c2cnnc(NN=Cc3ccc(C)o3)n2)cc1	x	x	x	13
8	COc1ccc(OC)c(NC(=O)CSc2nc(=O)n(CCN3CCOCC3)c3c2CCC3)c1	-9	13	5084	7.3
9	CSCCC1NC(=O)N(C(C)C(=O)Nc2cc(Cl)cc(Cl)c2)C1=O (centres undefined)	-5	-4	4601	-1.7
10	CCN(CC)S(=O)(=O)c1ccc(C)c(NC(=O)CN(C)C)c1	-11	-1	2099	0.2

item	Sa ugtP lethal	Mtb hypoxia inh	Mtb hypoxia inh growth
1	-4	9	-3
2	x	x	x
3	2	2	-6
4	-2	x	x
5	5	6	12
6	7	17	10
7	0	4	-4
8	1	6	5
9	4	13	15
10	4	11	5

Further results follow.
item	mol	PrP UTR inh	BJeLR viability	Autofluor counter	Sa RN4220 lethal
11	CC(=O)NCc1ccc(-c2csc(NC(=O)CCCc3nc4ccccc4c(=O)[nH]3)n2)cc1	-28	x	3608	4.5
12	CCCCOc1ccc(C2CCC(C(C)=O)C(C)C2)cc1 (centres undefined)	-21	4	3687	-6.7
13	O=C(N[C@@H](Cc1ccccc1)C(=O)OCc1ccccc1)c1ccco1	-4	x	5182	11
14	CCOc1ccc(C(=O)N/N=C(/C)C2C(=O)c3ccccc3C2=O)cc1	2	8	2316	x
15	CCC1CCc2sc(C(=O)NCC(c3ccc(OC)cc3)N3CCOCC3)cc2C1 (centres undefined)	-7	x	5886	-0.4
16	O=C(CSc1nnc(-c2ccccc2)n1Cc1ccco1)NCc1ccc2c(c1)OCO2	-24	11	2992	4.6
17	O=[N+]([O-])c1ccccc1C=NN1CCN(Cc2ccccc2Cl)CC1	x	x	x	9.2
18	COc1ccc(OC)c(C2NC(=S)NC3=C2N2CCC3CC2)c1 (centres undefined)	-8	2	3134	4.4
19	CC(=O)Nc1ccc(NC(=O)[C@@H](NC(=O)N2C[C@H]3C[C@@H](C2)c2cccc(=O)n2C3)C(C)C)cc1	-20	-3	5166	1.4
20	Cc1ccccc1-n1c(C)nc2ccsc2c1=O	2	2	3395	2.4

item	Sa ugtP lethal	Mtb hypoxia inh	Mtb hypoxia inh growth
11	0	4	7
12	16	6	-1
13	4	-4	-3
14	x	x	x
15	0	0	5
16	-7	x	x
17	26	19	16
18	3	12	2
19	4	x	x
20	1	2	0

(listing goes on)
item	mol	PrP UTR inh	BJeLR viability	Autofluor counter	Sa RN4220 lethal
21	O=c1[nH]cnc2scc(-c3cccs3)c12	-45	5	3280	7.5
22	CC1CC2(CCCC2)Nc2ccc(F)cc21 (centres undefined)	-14	3	3537	2.0
23	CNS(=O)(=O)c1cccc(C(=O)OCC(=O)N(CCC#N)c2ccccc2)c1	-24	-1	4310	2.2
24	CCCc1cc(=O)oc2cc(OCC(=O)Nc3ccc(CN4CCOCC4)cc3)c(Cl)cc12	-14	13	5847	-2.4
25	O=C(Cc1ccccc1)NCc1nc2ccccc2[nH]1	-32	-8	13584	-2.5
26	O=C(NCc1ccccn1)C1CCN(S(=O)(=O)c2cc(Cl)ccc2Cl)CC1	-16	5	2532	-0.8
27	CCc1onc(C)c1C(=O)Nc1ccc2c(c1)OCO2	-7	-1	4269	2.5
28	COc1ccc(CCN2CC(C(=O)N(C)CC(=O)Nc3cccc(F)c3)CC2=O)cc1OC (centres undefined)	-14	-6	5883	-0.5
29	COc1ccc2c(c1)OC(=O)CC2c1ccccc1OC (centres undefined)	1	x	3033	6.6
30	CN(C)CCN(C(=O)c1ccc2ccccc2c1)c1nc2c(F)cccc2s1	-29	-3	6002	3.1

item	Sa ugtP lethal	Mtb hypoxia inh	Mtb hypoxia inh growth
21	-8	1	2
22	0	7	7
23	9	11	3
24	1	-2	1
25	2	5	3
26	2	12	3
27	8	11	10
28	-3	-5	10
29	14	5	-10
30	-3	-6	3

Nos. 17 to 29, quoted:
item	mol	PrP UTR inh	BJeLR viability	Autofluor counter	Sa RN4220 lethal
17	O=[N+]([O-])c1ccccc1C=NN1CCN(Cc2ccccc2Cl)CC1	x	x	x	9.2
18	COc1ccc(OC)c(C2NC(=S)NC3=C2N2CCC3CC2)c1 (centres undefined)	-8	2	3134	4.4
19	CC(=O)Nc1ccc(NC(=O)[C@@H](NC(=O)N2C[C@H]3C[C@@H](C2)c2cccc(=O)n2C3)C(C)C)cc1	-20	-3	5166	1.4
20	Cc1ccccc1-n1c(C)nc2ccsc2c1=O	2	2	3395	2.4
21	O=c1[nH]cnc2scc(-c3cccs3)c12	-45	5	3280	7.5
22	CC1CC2(CCCC2)Nc2ccc(F)cc21 (centres undefined)	-14	3	3537	2.0
23	CNS(=O)(=O)c1cccc(C(=O)OCC(=O)N(CCC#N)c2ccccc2)c1	-24	-1	4310	2.2
24	CCCc1cc(=O)oc2cc(OCC(=O)Nc3ccc(CN4CCOCC4)cc3)c(Cl)cc12	-14	13	5847	-2.4
25	O=C(Cc1ccccc1)NCc1nc2ccccc2[nH]1	-32	-8	13584	-2.5
26	O=C(NCc1ccccn1)C1CCN(S(=O)(=O)c2cc(Cl)ccc2Cl)CC1	-16	5	2532	-0.8
27	CCc1onc(C)c1C(=O)Nc1ccc2c(c1)OCO2	-7	-1	4269	2.5
28	COc1ccc(CCN2CC(C(=O)N(C)CC(=O)Nc3cccc(F)c3)CC2=O)cc1OC (centres undefined)	-14	-6	5883	-0.5

item	Sa ugtP lethal	Mtb hypoxia inh	Mtb hypoxia inh growth
17	26	19	16
18	3	12	2
19	4	x	x
20	1	2	0
21	-8	1	2
22	0	7	7
23	9	11	3
24	1	-2	1
25	2	5	3
26	2	12	3
27	8	11	10
28	-3	-5	10

item	mol	PrP UTR inh	BJeLR viability	Autofluor counter	Sa RN4220 lethal
29	COc1ccc2c(c1)OC(=O)CC2c1ccccc1OC (centres undefined)	1	x	3033	6.6

item	Sa ugtP lethal	Mtb hypoxia inh	Mtb hypoxia inh growth
29	14	5	-10

Other entries follow.
item	mol	PrP UTR inh	BJeLR viability	Autofluor counter	Sa RN4220 lethal
31	Cc1nnc(SCC2=C(C(=O)O)N3C(=O)C(NC(=O)Cn4nc(C(F)F)cc4C)C3SC2)s1 (centres undefined)	-25	5	6518	100*
32	Cc1ccccc1-c1cc(C(=O)O)n(CC2CC(c3cccnc3)=NO2)n1 (centres undefined)	-2	x	3922	2.9
33	CN(C)S(=O)(=O)c1cccc(NC(=O)COC(=O)c2ccc([N+](=O)[O-])o2)c1	-15	6	2438	2.8
34	CCOc1ccc(CNc2ccc(CNc3ncn[nH]3)cc2)cc1	-5	2	4145	-1.5
35	Cc1cccc(NNC(=O)C(=O)NNc2cccc(C)c2)c1	6	0	x	4.6
36	COCCNC(=O)C1CCC(CNS(=O)(=O)c2ccccc2)CC1 (centres undefined)	-2	-3	3740	0.7
37	COc1ccccc1NS(=O)(=O)c1ccc(C)c(C(=O)NCC(c2cccs2)N2CCOCC2)c1 (centres undefined)	-2	x	x	4.6
38	COCCCNC(=O)CCc1c(C)nc2c(-c3ccc(F)cc3)c(C)nn2c1C	-8	-1	4770	2.7
39	Cc1ccc(C)c2c1[nH]c1ccc([N+](=O)[O-])cc12	-11	14	3003	80
40	O=C1C2C(C(=O)N1/N=C/c1cccc([N+](=O)[O-])c1)C1C=CC2C12CC2 (centres undefined)	-56	9	2392	x

item	Sa ugtP lethal	Mtb hypoxia inh	Mtb hypoxia inh growth
31	101*	x	x
32	-1	7	7
33	5	-2	-1
34	9	14	15
35	7	4	-2
36	4	6	3
37	4	12	7
38	-2	10	10
39	84*	14	8
40	x	x	x

The listing continues:
item	mol	PrP UTR inh	BJeLR viability	Autofluor counter	Sa RN4220 lethal
41	CCN1CCC(O)(C(C(=O)O)c2ccccc2)CC1 (centres undefined)	3	x	3153	1.2
42	CCOC(=O)C1(CCc2ccccc2)CCN(Cc2cccc3cnccc23)CC1	-9	10	3063	-3.2
43	N#Cc1c(-c2ccc3c(c2)OCO3)csc1N	-27	-15	3267	9.4
44	Cc1ccc(C(=O)COC(=O)COc2ccccc2C)cc1	-6	-8	6252	-1.2
45	COc1ccc(/C(N)=N/OC(=O)CN(C)S(=O)(=O)c2ccc(C)cc2)cc1	-11	x	3071	11
46	O=C(O)c1ccc(N2CC3CC(C2)c2cccc(=O)n2C3)c(NS(=O)(=O)c2cccc(C(F)(F)F)c2)c1 (centres undefined)	-8	-3	4465	1.8
47	CCOC(=O)c1ccc(S(=O)(=O)NNC(=O)c2ccc3c(c2)nc(C)n3CC)cc1	-19	-2	4283	0.8
48	O=C(COC(=O)C12CC3CC(CC(C3)C1)C2)NNC(=O)c1ccccc1	-17	x	8647	0.8
49	CC(C)n1c(SCC(=O)N2CCCCC2)nc2c1c(=O)n(C)c(=O)n2C	-19	6	3399	2.5
50	Cc1cc(=O)[nH]c(SCC(=O)Nc2ccc(C)c(S(=O)(=O)N3CCCCC3)c2)n1	-22	33	8382	1.3

item	Sa ugtP lethal	Mtb hypoxia inh	Mtb hypoxia inh growth
41	0	2	-2
42	-3	-16	-4
43	-3	7	3
44	-1	-6	8
45	10	18	3
46	0	-6	-8
47	-3	12	6
48	2	-4	4
49	4	5	8
50	0	15	1

More records:
item	mol	PrP UTR inh	BJeLR viability	Autofluor counter	Sa RN4220 lethal
51	COc1ccc(S(=O)(=O)N2CCOCC2)cc1NC(=O)CN(C)CC(=O)Nc1cccc(F)c1	-5	x	3564	1.2
52	COCC(C)NC(C(=O)Nc1cccc(C(C)=O)c1)c1ccccc1 (centres undefined)	-24	8	4178	4.5
53	CCCc1nn2c(=O)cc(CSCC(=O)Nc3cccc(OC)c3)nc2s1	-10	-9	4815	3.1
54	COc1cc(NC(=O)Cc2ccccc2)cc(OC)c1	-6	-19	2850	1.7
55	Clc1ccc(-c2nc3ccccn3c2CN2CCCCC2)cc1	-34	x	2282	6.5
56	COc1ccc(NC(=O)CNC(=O)Cc2ccccc2)cc1	-6	7	2970	0.9
57	COc1cc(CCC(=O)OCC(=O)N(CC(C)C)C2CCS(=O)(=O)C2)cc(OC)c1OC (centres undefined)	-27	x	u	3.0
58	CC(C)n1nc(C(=O)OCC(=O)c2c[nH]c3ccccc23)c2ccccc2c1=O	6	0	15302	-5.1
59	O=C(COC(=O)c1cnccn1)NCCc1ccccc1	-20	-8	u	7.2
60	CCS(=O)(=O)c1ccc2c(c1)N(S(C)(=O)=O)CC(C(=O)NN)O2 (centres undefined)	-3	x	4484	2.5

item	Sa ugtP lethal	Mtb hypoxia inh	Mtb hypoxia inh growth
51	-1	6	0
52	20	-4	2
53	8	13	-1
54	3	x	x
55	10	11	0
56	15	-2	-9
57	4	9	0
58	-15	-2	2
59	7	11	3
60	7	7	8

New compounds follow.
item	mol	PrP UTR inh	BJeLR viability	Autofluor counter	Sa RN4220 lethal
61	Cc1ccc(S(=O)(=O)N2[C@@H](c3ccc(Br)cc3)C(C(=O)O)=C[C@H]2C(C)(C)C)cc1	8	x	3879	7.9
62	CCOC(=O)C[C@H]1c2ccccc2S(=O)(=O)N1C1CC1	-18	6	3933	x
63	CC(C)Cn1c(CN2CCN(c3ccccc3F)CC2)nc2c1c(=O)[nH]c(=O)n2C	0	-1	6263	3.1
64	CN(C)C(=O)Cn1nc(-c2ccccc2)c2ccccc2c1=O	-25	1	3160	4.0
65	COc1ccccc1-c1nnc(SCC(=O)O)n1C	-9	4	5241	0.1
66	Cc1nc(C)c(C(=O)OCC(=O)Nc2ccccc2SCC#N)s1	-4	x	4577	4.5
67	COc1ccc(C)cc1-n1c(SCC(=O)NC2CC2)nc2ccccc2c1=O	-12	x	3685	3.7

item	Sa ugtP lethal	Mtb hypoxia inh	Mtb hypoxia inh growth
61	-18	-7	0
62	x	x	x
63	10	4	-2
64	11	x	x
65	3	1	8
66	-3	18	7
67	0	24	48
